# Compound activity deposited in PubChem by several laboratories.
# E coli growth: blocks Escherichia coli growth; OD600 absorbance (test concentration not listed); OD600, 23 h; active compounds read low; 330,000 tested, 0.21% active;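 active = OD600 absorbance below the run mean of sample wells minus 3.6 SD, in any replicate, cut at about 0.56 in these data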;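 note: stock transfer was 300 nL into about 60 µL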
# A1 inh: inhibitors of the anti-apoptotic protein A1, read as caspase activation | MEF A1-2A-BIM cells, Caspase-Glo 3/7 luminescence, 3 h; percent of clofoctol response, vehicle zero | caspase activation, % (test concentration not listed) | 330,000 tested, 0.066% active | AID 2462;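 active = over half of replicate activation scores above 10%, or exactly half above 10 with the replicate mean above 10; inconclusive = replicate mean below 10 yet half the replicates above 10; inactive = over half of replicates below 10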;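 note: wells of about 30 µL received 50 nL stock; many hits fall short of the cut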
# UCH37 DUB inh: human UCH37 deubiquitinating enzyme inhibition. purified proteasome/UCH37, Ub-AMC cleavage fluorescence. inhibition, % (concentration not given with the values). 330,000 tested, 0.33% active. AID 588478;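 active = mean of two replicates above 20%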;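 note: 0% = compound-free wells with enzyme and 100% = wells lacking proteasome; stock transfer was 100 nL into about 20 µL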
# Target sequence (Q9Y5K5 whole entry, looked up): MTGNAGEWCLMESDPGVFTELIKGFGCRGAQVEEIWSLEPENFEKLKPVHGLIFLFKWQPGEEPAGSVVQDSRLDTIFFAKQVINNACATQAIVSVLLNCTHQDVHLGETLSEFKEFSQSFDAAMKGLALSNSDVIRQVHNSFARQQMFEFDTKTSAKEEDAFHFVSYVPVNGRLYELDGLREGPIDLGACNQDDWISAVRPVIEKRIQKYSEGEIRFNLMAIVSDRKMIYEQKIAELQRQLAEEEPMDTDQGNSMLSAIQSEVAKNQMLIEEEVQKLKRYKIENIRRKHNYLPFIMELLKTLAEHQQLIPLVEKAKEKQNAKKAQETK
#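 Material: Human UCH37 enzyme supplied as purified proteasome complex | Schedule: 30 min preincubation with enzyme, 25 min cleavage at room temperature | Detection: AMC fluorescence 355/460 nm | Measure: % inhibition of Ub-AMC cleavage fluorescence | Controls: Wells without proteasome as full block, compound-free enzyme plus substrate as uninhibited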
# LANA-H2B inh: blocks KSHV LANA binding to histone H2A/H2B; Q9QR71; cell-free LANA-H2A/H2B peptide, fluorescence polarization; inhibition, % (test concentration not listed); 320,000 tested, 0.6% active; in the data active = inhibition mostly above about 10%, no sharp cut-off; inactive = mostly below about 6.7%;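 note: stock transfer was 7.5 nL into about 10 µL; 0% = median of vehicle wells and 100% = median of positive control wells; one replicate is shown; the record names a cut of 25% in any replicate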
# B2AR ag: activates human beta-2 adrenergic receptor causing internalization. P07550. Am2.2-beta2AR cells, FAP receptor internalization, flow cytometry; reference of the scale not given here. response, % (test concentration not listed). 340,000 tested, 0.43% active. AID 504454;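 active = response above a set limit, near 3 SD of response in nonfluorescent compounds, cut at about 42% in these data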;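 note: stock transfer was 100 nL into about 11 µL; a reference agonist was the positive control; negative values mostly stem from fluorescent compounds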
# HNF4A DNA FP: change in binding of human HNF4 alpha to DNA; 360,000 tested, 0.3% active; P41235; activity change, % at 10 µM; HNF4a-FITC DNA binding, fluorescence polarization, 1 h; in the data active = activity change above about 30%, passing the limit was not always enough;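 note: controls were the assay level and a saturating level of protein; the project sought stronger binding though the title names inhibitors; some compounds called inactive have numbers as strong as hits; positive values seem to mean higher polarization but the record does not say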
# Target sequence (P41235 whole entry, looked up): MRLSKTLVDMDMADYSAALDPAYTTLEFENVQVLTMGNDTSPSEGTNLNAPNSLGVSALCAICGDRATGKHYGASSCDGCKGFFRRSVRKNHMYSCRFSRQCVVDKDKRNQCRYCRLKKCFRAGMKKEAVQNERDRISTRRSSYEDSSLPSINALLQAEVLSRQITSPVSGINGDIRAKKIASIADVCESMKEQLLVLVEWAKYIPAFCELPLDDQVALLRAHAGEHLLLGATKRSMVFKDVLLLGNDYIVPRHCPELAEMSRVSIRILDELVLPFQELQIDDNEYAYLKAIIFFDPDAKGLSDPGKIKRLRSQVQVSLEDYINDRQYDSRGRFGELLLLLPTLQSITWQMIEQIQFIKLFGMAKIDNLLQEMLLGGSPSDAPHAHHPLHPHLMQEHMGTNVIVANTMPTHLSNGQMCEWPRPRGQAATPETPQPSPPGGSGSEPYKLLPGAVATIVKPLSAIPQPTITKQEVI
# Vif A3G: HIV-1 Vif–A3G interaction blockers – biochemical, TR-FRET, GST-Vif 1-94, biotin-A3G peptide, dose response retest, primary screen (AID 1117319). TR-FRET GST-Vif / biotin-A3G peptide binding; higher % means a stronger effect; test concentration not given here; strong numbers were not always called active. inhibition, %; hits with a dose series show IC50 in µM. 260,000 tested, 0.57% active;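 active = above the screen mean plus three standard deviations and confirmed in dose response; inconclusive = results disagree or hit not tested in dose response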;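 note: Vif residues 1-94 fused to GST binding biotinylated APOBEC3G peptide 110-148; 0% = full assay without inhibitor and 100% = GST in place of GST-Vif; retest series ran down from 100 µM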
# Starred values were filed as active, the others as inactive; ? = inconclusive; · = no result given.
SMILES,E coli growth,A1 inh,UCH37 DUB inh,LANA-H2B inh,B2AR ag,HNF4A DNA FP,Vif A3G
O=C(Nc1ccccn1)c1ccc2c(=O)n3c(nc2c1)CCCCC3,0.681,-12.4,1.1,-4.1,-3.3,4.4,-14.5%
NC(=O)CCn1cnc2ccccc21,0.722,0.2,2.8,-4.8,1.5,-3.5,0.4%
CN1OC[C@@H]2CN(C(=O)CCc3ccccc3)[C@H](c3cccc(-c4ccccc4)c3)C[C@@H]21,·,·,·,·,2.1,2.1,-9.3%
O=C(NCC1CCCO1)c1ccc2c(=O)n(-c3ccccc3)c(=S)[nH]c2c1 (stereo not drawn),0.722,-0.5,1.6,0.7,-10.6,-3.3,?
CS(=O)(=O)Cc1ccc(C(=O)NC(c2ccccc2)c2ccccc2)cc1,0.63,0.7,1.2,0.2,5.8,1.3,4.2%
CCOC(=O)c1c(/N=C/c2cc([N+](=O)[O-])ccc2O)sc(C)c1C,·,-0.1,·,16.1,10.0,0.6,·
Cc1cc(C(=O)N/N=C/c2sccc2C)no1,·,-2.2,·,-2.8,3.6,1.8,-3.4%
NS(=O)(=O)c1cccc(NC(=O)CSc2nc3ccccc3c(=O)n2CCCN2CCOCC2)c1,0.667,0.4,2.0,·,-1.4,2.7,-6.7%
S=C(Nc1ccc(Cl)cc1)N(CCCN1CCOCC1)Cc1ccco1,0.651,0.6,3.9,-0.2,-4.9,-1.3,·
Cc1nc2ccccc2c2ncccc12,0.656,1.2,4.3,-2.7,-2.6,-1.7,-2.4%
COc1cc(NC(=O)C(Cc2ccccc2)n2cccc2)cc(OC)c1 (stereo not drawn),0.69,-0.1,4.5,2.1,4.2,1.2,-6.3%
COc1ccc(CNC(=O)[C@H](C)[C@@H]2C[C@@]2(C)[C@@H](NC(=O)OCc2ccccc2)c2ccccc2)cc1OC,·,1.2,-1.9,-0.3,·,·,8.2%
Cc1ccc(NC(=S)NC(=O)C2CCC2)cc1C,0.63,-1.6,1.5,-7.6,-8.4,4.0,·
COc1ccc(S(=O)(=O)N2CC(C(=O)O)Oc3ccccc32)cc1 (stereo not drawn),0.69,-0.3,1.3,-0.9,-4.2,-0.2,-0.7%
O=[n+]1cc(-c2cccc3ccccc23)n([O-])c2c1CCC2,0.754,0.0,1.3,-2.8,-5.5,-1.6,-4.2%
CCCS(=O)(=O)NCc1cn2cccc(C)c2n1,0.659,0.8,-1.7,3.1,-2.8,1.6,-0.9%
C/C(=N\NS(=O)(=O)c1ccc(C)cc1)c1cccs1,·,1.8,·,-1.6,-1.3,-2.3,-1.5%
O=C1Cc2c(-c3ccccc3)cc(-c3cccc(Cl)c3)nc2-c2ccccc2N1,·,·,·,·,20.1,5.1,-41.7%
COc1ccc(S(=O)(=O)NC2CCCCC2)cc1F,0.726,?,6.5,-1.1,-7.8,-1.8,0.2%
Cc1ccc(NC(=O)C(C)SCc2nc3sc(C)c(C)c3c(=O)[nH]2)nc1 (stereo not drawn),0.662,-0.7,-1.1,-1.1,-3.3,6.1,1.1%
CC[C@]12c3[nH]c4cc(-c5ccco5)ccc4c3CCN1C(=O)[C@@H](CC(=O)NCCCn1ccnc1)C[C@@H]2C(=O)N1CCN(C(=O)C2CC2)CC1,0.691,·,-11.6,·,-1.6,3.7,3.0%
CC1CN(CC(=O)Nc2nc3ccccc3s2)CC(C)O1 (stereo not drawn),0.623,-0.4,-1.7,-1.9,11.6,7.7,-8.3%
Cc1ccccc1-c1nc(CS(=O)CC(=O)NCCN2CCN(Cc3ccccc3)CC2)c(C)o1 (stereo not drawn),0.711,0.2,3.8,-8.4,6.2,5.1,25.4%
CCOC(=O)C1=C(C)NC(=S)N(C(C)=O)C1c1ccc(OC)c(OC)c1 (stereo not drawn),0.722,-0.4,8.6,0.8,7.8,4.3,19.7%

# Exported with tabs: entries from further up
molecule	E coli growth	A1 inh	UCH37 DUB inh	LANA-H2B inh	B2AR ag	HNF4A DNA FP	Vif A3G
CCCS(=O)(=O)NCc1cn2cccc(C)c2n1	0.659	0.8	-1.7	3.1	-2.8	1.6	-0.9%
C/C(=N\NS(=O)(=O)c1ccc(C)cc1)c1cccs1	·	1.8	·	-1.6	-1.3	-2.3	-1.5%
O=C1Cc2c(-c3ccccc3)cc(-c3cccc(Cl)c3)nc2-c2ccccc2N1	·	·	·	·	20.1	5.1	-41.7%

# (further entries)
SMILES,E coli growth,A1 inh,UCH37 DUB inh,LANA-H2B inh,B2AR ag,HNF4A DNA FP,Vif A3G
O=C(NCc1cccnc1)/C(=C/c1ccc(Cl)cc1)NC(=O)c1ccccc1,0.67,-0.7,1.9,-0.6,-3.2,1.1,-4.5%
c1ccc(CCCc2nc(-c3ccccn3)no2)cc1,0.672,-0.6,0.4,3.9,0.7,-0.5,-1.0%
CC(C)c1ccc(C2C3=C(CC(C)(C)CC3=O)NC3=C2C(=O)c2ccccc23)cc1 (stereo not drawn),0.702,-0.7,3.5,-2.1,23.5,-1.9,-5.7%
COc1ccc(CNC(=O)C(c2ccco2)N(C(=O)c2snc(C(N)=O)c2N)c2cccc(OC)c2)cc1 (stereo not drawn),0.663,0.1,-80.7,-1.4,9.8,-0.9,·
Cc1cc2ncn(C(=O)N3CCCC3)c2cc1C,0.731,1.1,-2.1,-1.8,2.0,-2.7,1.9%
Cc1cc(C)c(NS(=O)(=O)c2c(C(=O)N3CCOCC3)c(C)n(C)c2C)c(C)c1,0.733,-1.3,-2.1,5.4,0.8,1.8,·
O=C(O)CCC(=O)NNc1ccccc1[N+](=O)[O-],0.702,1.5,5.6,1.1,-1.3,-5.0,-4.2%
C=C(C)COc1ccc(-c2nc(N)ncc2-c2ccc(OC)c(OC)c2)c(O)c1,0.644,-0.3,5.3,-0.1,-7.1,-11.7,-4.9%
O=C(Oc1ccc(Br)cc1C(=O)/C=C/c1ccccc1F)c1ccco1,0.645,1.0,1.8,-5.8,57.6*,17.0,·
COc1ccc(/C=N/NC(=O)C(=O)Nc2ccccn2)cc1OC,·,0.4,·,3.1,-3.5,-1.6,-0.6%
COCc1nnc(NC(=O)c2ccc(S(=O)(=O)N(C)Cc3ccccc3)cc2)o1,0.706,0.6,0.5,-1.4,4.6,3.9,-6.8%
O=C(CNC(=O)c1ccc(Cl)cc1)N/N=C/C=C/c1ccccc1,·,-0.3,·,-1.1,9.2,-0.7,17.8%
CC(C)(C)C(=O)Nc1nnc(SCC(=O)NC2CC2)s1,0.631,0.8,6.8,-6.8,2.4,4.3,·
C=CCSc1nnc(CNC(=O)c2ccccc2C)n1C(C)C,0.697,0.1,0.5,-1.5,2.7,1.9,4.5%
Cc1csc(SCC(=O)NC(C)c2ccc(F)cc2)n1 (stereo not drawn),0.729,-0.4,1.0,-1.5,1.0,-1.1,4.0%
CCCCCCC(=O)OCC(=O)c1ccc2c(c1)NC(=O)CO2,0.665,1.1,5.5,4.8,3.5,7.6,-4.6%
Cc1cc(C)c(C)c(OCCOCCNCc2ccccc2)c1,0.671,-1.6,1.4,-4.4,1.0,9.4,·
CCCCC(CCC(=O)O)(C(=O)OCC)c1csc(Nc2ccc(OCC)cc2)n1 (stereo not drawn),0.674,-0.3,3.5,6.6,-2.8,-4.5,?
CCOC(=O)C1=C(C(F)(F)F)Nc2ncnn2C1c1cccc(OC)c1OC (stereo not drawn),0.729,0.4,6.9,-4.5,0.1,4.4,·
CNc1oc(Cc2cccc3ccccc23)nc1C#N,0.603,1.8,1.5,2.5,-6.9,3.6,0.8%
COc1ccc(C(=O)C2CCCN(Cc3cccn3-c3ccccn3)C2)c(C)c1 (stereo not drawn),0.664,-0.5,2.7,-8.8,0.2,-0.6,23.9%
CCN(CC(=O)Nc1ccccc1C(=O)Nc1ccccc1)Cc1nc2ccccc2c(=O)[nH]1,0.719,1.5,2.9,4.8,7.0,-2.0,28.1%
COc1ccc(-c2cc(C(=O)N(C)Cc3nc4ccccc4c(=O)[nH]3)c3ccccc3n2)cc1OC,0.729,1.2,-26.4,1.0,20.1,-4.8,-7.4%
OC1CCNC(=S)N1c1ccccc1 (stereo not drawn),0.666,-0.1,-0.2,5.1,6.5,0.8,12.0%
O=C1[C@@H](Oc2ccccc2)[C@@H](c2cnc3ccccc3c2)N1c1ccccc1,0.733,·,3.8,·,18.5,-1.1,1.6%
NC(=O)C1CCN(C2=C(NS(=O)(=O)c3ccc(Br)cc3)C(=O)c3ccccc3C2=O)CC1,0.715,0.6,21.2*,1.8,-6.4,0.0,·
CCOc1ccc(S(=O)(=O)n2cnc3ccccc32)cc1,0.693,0.0,3.0,5.5,-6.5,0.2,·
C=CCN1C(=O)c2ccc(C(=O)N3CCN(c4ccccc4OC)CC3)cc2C1=O,0.699,1.7,2.0,2.7,-5.1,-2.2,41.4%
Cc1cc(-c2ccccc2)nc2[n+]1CCN2C,0.64,0.0,-60.8,0.2,3.1,0.8,9.1%
CC(/C=C/c1ccccc1F)=N\NC(=O)c1cccc(F)c1,·,-0.5,·,-1.7,-0.9,-0.2,-1.0%
CCc1ccc(C(=O)c2cnc3ccc(OC)cc3c2N2CCN(CC)CC2)cc1,0.737,1.3,0.1,1.2,-6.8,2.0,-22.8%
CSCCOC(=O)COc1ccc(/C=N/NC(=O)c2nn(C)cc2Cl)cc1,·,-0.9,·,6.8,-1.1,1.3,-1.4%
Cc1nn(-c2ccccc2)c(C)c1C(=O)OCC(=O)N1CC(=O)Nc2ccccc21,0.66,-0.6,3.2,2.4,-0.6,3.0,1.1%
Cc1csc2c(=O)[nH]cnc12,0.712,0.5,1.2,0.5,3.4,-1.9,·
Cc1cc(NS(=O)(=O)c2ccc(NC(=O)c3ccc(Cl)cc3[N+](=O)[O-])cc2)no1,0.679,-0.2,5.2,-2.1,3.0,0.8,·
CC[C@H](C)[C@H]1CNC(=S)N1CC1CCN(CCCCc2ccccc2)CC1,·,·,·,·,-8.2,3.5,-1.8%
CN(C)C(=O)C(OC(=O)c1ccc2ccccc2n1)c1ccccc1 (stereo not drawn),0.71,1.1,1.0,-1.3,-5.3,-0.3,·
O=c1[nH]c2ccccc2cc1CN(CC1CCCO1)S(=O)(=O)c1ccc(Cl)cc1 (stereo not drawn),0.667,0.0,-1.5,-2.5,-20.0,2.4,·
CCOC(=O)CN1C(=O)C2(OCCCO2)c2cc(Br)ccc21,0.671,-0.7,-0.5,2.1,-1.4,-0.2,-5.0%
CC(=O)N1c2ccc(S(=O)(=O)N3CCC(C(=O)Nc4cccc(F)c4)CC3)cc2CC1C (stereo not drawn),0.69,0.4,6.2,1.2,3.9,-0.1,·
CC(=O)N[C@@H](Cc1c[nH]c2ccccc12)C(=O)NC1CC1,0.674,-0.2,0.5,-4.5,-3.1,2.8,-15.9%
COC(=O)N1C(=O)[C@](Cc2ccccc2)(c2ccccc2)N1C(=O)OC,·,0.7,·,3.5,8.6,-0.2,·
O=C(OCc1nc2ccccc2s1)c1cccc(N2C(=O)CCC2=O)c1,0.711,-0.1,1.7,-2.3,5.5,-1.0,0.8%
Cc1cnc(C(=O)NCC(c2ccccc2)c2ccccc2)cn1,0.653,1.1,0.8,-2.8,-3.5,-5.3,4.7%
CC(C)OC(=O)C1C2C=CC3(CN(C(C)c4ccc(Br)cc4)C(=O)C13)O2 (stereo not drawn),0.748,0.0,-0.7,-1.9,0.8,1.7,31.8%
COc1cccc(CNC(=O)c2ccccc2-c2ccccc2)c1,0.685,0.2,-2.3,-1.6,0.3,4.2,·
Oc1ccc(/C=N/Nc2ccc(C(F)(F)F)cn2)c(O)c1,·,-0.1,·,-1.7,11.8,9.3,·
